Screens: PubChem, several laboratories
Mtb H37Rv – M. tuberculosis H37Rv growth inhibitors, H37Rv strain (AID 1626). inhibition, % at 10 µM; hits with a dose series show IC50 in µM. M. tuberculosis H37Rv growth inhibition; higher % means a stronger effect. actives 0.95% (n = 220,000);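 active = confirmed in a dose series; inconclusive = inhibition above 80% but not taken into the dose series; inactive = below 80% or under 30% at every dose of the series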;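 note: bacteria incubated seven days before Alamar blue readout; 0% = bacteria only wells and 100% = bacteria with antibiotic wells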
Arbovirus anti – arbovirus infection inhibition. arbovirus infection cell-based antiviral screen. actives 0.37% (n = 200,000). inhibition, % at 10 µM;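 active = inhibition from about 30%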;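 note: bluetongue infection of BSR cells; cell survival read as ATP light after 72 h; 0% = infected wells without compound and 100% = uninfected wells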
YopH PTP inh – YopH (Yersinia) phosphatase inhibition. fluorescence Ex485/Em525. inhibition, %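 (about 10 µM by stock and volumes)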. actives 0.16% (n = 140,000);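 active = inhibition of 50% or more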;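 note: controls were vehicle for no effect and minimum signal wells for full effect; inactives centre near -20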
Mtb bLac sens – beta-lactam sensitization of Mtb H37Rv. M. tuberculosis H37Rv growth with meropenem, percent inhibition; hits of this screen are not shown here. inhibition, % at 25 µM. actives 0.27% (n = 330,000);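 active = about 74% or more and at least 40 points above the plate without the antibiotic, then above 30% in a dose series; inconclusive = first-round hits that could not be retested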;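 note: growth measured after seven days incubation then overnight dye step; 0% = bacteria only wells and 100% = bacteria with antibiotic; twin plates without the antibiotic show which effects depend on it; some results filed as inactive read as strong as hits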
RecA splice inh – blocks M. tuberculosis RecA intein splicing | P9WHJ3 | cell-free RecA intein splicing, fluorescence | inhibition, %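 (about 9 µM by stock and volumes)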 | actives 0.75% (n = 290,000) | AID 2221; in the data active = inhibition above about 30%; inconclusive = no clear call, values can overlap the other calls;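 note: 0% = vehicle wells and 100% = reference inhibitor control wells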
Target sequence (P9WHJ3 whole entry, looked up, canonical isoform): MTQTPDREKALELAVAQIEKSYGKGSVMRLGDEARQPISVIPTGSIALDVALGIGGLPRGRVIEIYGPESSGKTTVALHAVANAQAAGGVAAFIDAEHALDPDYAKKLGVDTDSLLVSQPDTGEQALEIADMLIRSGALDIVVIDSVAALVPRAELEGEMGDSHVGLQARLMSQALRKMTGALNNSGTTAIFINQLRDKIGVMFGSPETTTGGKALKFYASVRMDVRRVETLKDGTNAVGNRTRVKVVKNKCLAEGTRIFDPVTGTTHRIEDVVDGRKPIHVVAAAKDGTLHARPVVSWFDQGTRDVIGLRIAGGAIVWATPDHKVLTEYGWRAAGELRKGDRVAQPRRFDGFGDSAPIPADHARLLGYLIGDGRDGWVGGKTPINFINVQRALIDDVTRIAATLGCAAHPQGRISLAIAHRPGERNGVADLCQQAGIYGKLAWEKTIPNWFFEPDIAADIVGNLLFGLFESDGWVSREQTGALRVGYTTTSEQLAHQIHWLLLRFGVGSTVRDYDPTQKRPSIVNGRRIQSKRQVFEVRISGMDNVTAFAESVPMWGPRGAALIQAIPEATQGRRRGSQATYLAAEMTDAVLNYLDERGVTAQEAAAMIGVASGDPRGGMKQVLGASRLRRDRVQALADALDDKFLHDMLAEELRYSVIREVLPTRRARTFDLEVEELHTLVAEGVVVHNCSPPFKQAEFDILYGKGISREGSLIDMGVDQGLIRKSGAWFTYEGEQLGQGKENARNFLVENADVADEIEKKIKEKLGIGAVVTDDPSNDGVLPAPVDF
Arbovirus anti repeat – recorded beside Arbovirus anti, whose call it bears; inhibition, %; measured here: 10K subset replicate screen; many hits read low in the repeat;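 first of two repeat runs on a subset; 0% = infected and 100% = uninfected wells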
Starred values were filed as active, the others as inactive; ? = inconclusive; . = not tested or not shown. Not all compounds are listed (hit frequency here may not be typical).

SMILES	Mtb H37Rv	Arbovirus anti	YopH PTP inh	Mtb bLac sens	RecA splice inh	others
CC1CCC(NC(=O)CCS(=O)(=O)c2ccc3c(c2)NC(=O)CS3)CC1 (stereo not drawn)	.	.	.	18	-1.6
C=CCn1c(COc2ccccc2-c2ccccc2)nnc1SCC(=O)NC(=O)NCc1ccco1	-11%	-7	-17	-4	1.1
COc1ccc(-c2nc3ccccc3c(=O)n2CCOc2cccc(C)c2C)cc1	-5%	15	-27	0	2.2
COc1ccc2oc(C(=O)Nc3nc4ccccc4[nH]3)c(C)c2c1	51%	.	.	.	-2.3
N#Cc1ccc(C(=O)Nc2ccc(S(=O)(=O)NC3=NCCCCC3)cc2)cc1	-6%	2	-56	-2	-3.8
O=c1oc2ccc(NS(=O)(=O)c3cccc4cccnc34)cc2s1	.	.	.	5	-7.5
COc1ccccc1C(CNC(=O)C1CC(=O)N(Cc2ccc(C)cc2)C1)N1CCCC1 (stereo not drawn)	.	.	.	-13	0.7
CCN=C1SC(CC(=O)Nc2ccccc2OCC)C(=O)N1CC (stereo not drawn)	-9%	0	-2	1	0.3
c1ccc2nc3c(nc2c1)c1ccccc1n3CCN1CCOCC1	-1%	-7	-4	?	0.5
CCNc1c(NS(=O)(=O)c2ccc([N+](=O)[O-])cc2)c(=O)oc2ccccc12	.	.	.	9	1.8
O=S(=O)(c1ccc(Cl)cc1)c1nc(-c2ccco2)oc1N1CCOCC1	7%	.	.	0	-0.4
COCCNC(=O)C(=O)NNC(=O)CCc1ccccc1	-4%	-1	.	-2	0.2

Brought forward from above: two entries, followed by the next part.
SMILES	Mtb H37Rv	Arbovirus anti	YopH PTP inh	Mtb bLac sens	RecA splice inh	others
O=S(=O)(c1ccc(Cl)cc1)c1nc(-c2ccco2)oc1N1CCOCC1	7%	.	.	0	-0.4
COCCNC(=O)C(=O)NNC(=O)CCc1ccccc1	-4%	-1	.	-2	0.2
CCOC(=O)c1cc(C)n(-c2ccc(OC)c(OC)c2)c1C	8%	2	-17	-6	1.2
COc1cccc(N2CC(O)Cn3c2nc2c3c(=O)[nH]c(=O)n2C)c1 (stereo not drawn)	.	.	.	-1	1.6
O=C(Nc1cccc(C(=O)O)c1)/C(=C\c1ccccc1)NC(=O)c1ccccc1	-5%	-2	.	8	2.0
Cc1ccc(C)c(NC(=O)c2oc(=O)c3ccccc3c2-c2ccccc2)c1	-28%	-18	-17	-3	-0.9
COC(=O)c1ccc(-c2ccco2)n1Cc1ccccc1Cl	2%	-2	-17	-1	0.7
S=c1[nH]nc(C2CCCCC2)n1/N=C/c1c(Cl)cccc1Cl	.	.	.	?	8.2
COc1ccc(CCC(=O)NNC(=O)Nc2cc(Cl)ccc2C)cc1	.	.	.	-5	1.3
N#Cc1nc(-c2ccc(OCc3ccccc3)cc2)oc1NCc1cccnc1	3%	-3	-44	78	5.7
Cc1cc2c(ncn2C)c(NS(=O)(=O)c2ccccc2Cl)c1C	1%	-2	-45	0	0.4
COc1ccc(C(=O)Nc2cc(C(F)(F)F)ccc2Cl)cc1OC	9%	2	-52	.	-0.4
COc1ccc(CC(=O)NC2CCSc3ccccc32)c(OC)c1 (stereo not drawn)	.	.	.	-8	1.9
CC1CCCCC1NCc1cccc([N+](=O)[O-])c1 (stereo not drawn)	5%	-3	.	2	0.7
Cc1cc(S(=O)(=O)Nc2ccc(C(=O)NCC(C)(C)N3CCOCC3)cc2)ccc1F	.	.	.	3	1.4
COC(=O)c1cccc(Cn2c(Cl)c(/C=N/NC(=O)c3ccco3)sc2=O)c1	.	.	.	55	-0.1
COC(=O)c1c(-c2ccc(C)cc2)csc1NC(=O)Cc1ccc(OC)c(OC)c1	.	5	-24	.	6.8
Cc1cc2oc(=O)c3c(c2cc1OCc1nn[nH]n1)CCCC3	-6%	8	-50	-3	.
N#CCCn1cc(C(=O)Nc2cccc(C(=O)O)c2)c(-c2ccc(Cl)cc2)n1	.	.	.	-9	-0.6
CNC(=O)/C(C#N)=C/c1c(N2CCN(C)CC2)nc2c(C)cccn2c1=O	.	.	.	-1	-230
CN1CCN(S(=O)(=O)c2cccc(C(=O)NC3CCCc4ccccc43)c2)CC1 (stereo not drawn)	.	1	-21	-9	4.9
Cc1ccc(NC(=O)CN2CCc3ccccc3C2)cc1	-6%	9	-2	-19	1.2
C=CCN1C(=O)CN=C1Nc1cc(C)ccc1C	1%	-1	-51	-10	1.9
Cc1cccc(NC(=O)CSc2nnc(CNC(=O)c3ccc(S(=O)(=O)N(C)C)cc3)n2-c2ccccc2)c1	3%	-6	-36	-9	-2.7
Cc1ccc(C(=O)OCCc2c(C)[nH]n(-c3ccccc3)c2=O)cc1	-10%	3	-30	-3	.
COc1cccc(CC(=O)N2CCN(c3ccccc3[N+](=O)[O-])CC2)c1	7%	21	.	-2	-2.9
Cc1c(Br)c([N+](=O)[O-])nn1CC(=O)Nc1ccc(Cc2ccncc2)cc1	35%	-2	-28	-7	2.4
COc1ccc(OC)c(NC(=O)CSc2nncc3ccc(OC)c(OC)c23)c1	-4%	.	.	3	-1.5
Cc1c2c(n3c(nc4ccccc43)c1C#N)N(c1ccccc1)CC2	-5%	-1	-24	.	.
Cc1ccnc(NC(=O)COC(=O)C23CC4CC(CC(C4)C2)C3)n1	-3%	.	.	-4	3.1
CCn1c(SCC(=O)NC2CCCCC2)nnc1-c1cc2cccc(OC)c2o1	1%	-1	23	-2	-2.4
CC(C)(C)c1[nH]nc2c1C(c1ccco1)C(C#N)=C(N)O2 (stereo not drawn)	6%	-2	.	5	41*
COc1cccc(NC(=S)N(CCCN2CCCC2)Cc2cccn2Cc2ccc(Cl)cc2)c1	4%	-31	.	-4	7.3
Cc1cc(N2CCOCC2)nc(SCC(=O)OCc2ccccc2)n1	6%	0	.	56	1.5
CCc1ccc(C(C)NC(=O)C2CCCO2)cc1 (stereo not drawn)	.	.	.	6	-1.5
C=C(c1cccc2ccccc12)P(=O)(O)O	-3%	12	34	-3	-1.6
Cc1nc(Cl)c(C(=O)NCCc2ccccc2)c(C)c1[N+](=O)[O-]	.	.	.	6	-0.1
O=C(NC1CCCc2c1cnn2-c1ccccc1F)c1ccccn1 (stereo not drawn)	.	.	.	1	4.2
CCCCCOC(=O)c1ccc(NC(=O)c2ccco2)cc1	.	-4	-40	0	1.1
CCC(=O)N1CCc2cc(S(=O)(=O)CCC(=O)N3CCc4ccccc4C3)ccc21	-8%	-1	-61	-9	-2.8
CCOC(=O)c1ccc(NC(=O)N2CC(C)OC(C)C2)cc1 (stereo not drawn)	11%	3	-43	-6	-1.5
C=CCC(O)(CC=C)CNC(=O)c1ccc(OC)c(OC2CCN(C(C)=O)CC2)c1	.	.	.	11	-2.2
Nc1nc(N)c(N=Nc2ccc(C(=O)O)cc2)c(N)n1	7%	.	.	2	6.1
CCCC(=O)O/N=C(\c1ccccc1)c1ccncc1	.	.	.	3	-1.4
COc1cccc(NC(=O)COc2ccc(C(=S)N3CCN(C)CC3)cc2OC)c1	.	.	.	-3	-1.4
COc1ccc(S(=O)(=O)NC(CC(=O)NCc2ccc3c(c2)OCO3)c2ccco2)cc1 (stereo not drawn)	-8%	-7	-52	-11	-0.9
COC(=O)Cc1ccc(NC(=O)c2ccc3c(c2)C(=O)N(Cc2cccnc2)C3=O)cc1	.	.	.	-3	0.1
Cc1c(C)c(C)c(C(=O)CCc2cccc(NC(=O)CCC(=O)O)c2)c(C)c1C	.	.	.	-1	0.6
CCOc1cc2[nH]c(=S)n(Cc3ccc(C(=O)NCCCOC)cc3)c(=O)c2cc1OCC	.	.	.	-5	-1.2
Cn1nnnc1SCC(=O)Nc1ccccc1C(N)=O	3%	8	.	5	8.5
CCc1c(O)nc(SCC(=O)Nc2ccccc2OC)[nH]c1=O	-2%	8	-35	0	-0.5
CCOc1cccc(/C=C/c2ccc3ccccc3n2)c1OC(C)=O	10%	-16	.	25	2.6
Cc1ccccc1OCc1nc2ccccc2c(=O)n1/N=C/c1c[nH]c2ccccc12	2%	1	-25	2	0.9
Cc1cccc(C)c1NC(=O)CN(C)c1ccc(C(F)(F)F)cn1	-3%	-3	-19	-2	-0.3
C/C(=N\NC(=O)c1ccc([N+](=O)[O-])cc1)c1cccc([N+](=O)[O-])c1	2%	7	.	8	-2.6
O=C(NN1C(=O)/C(=C/c2cccs2)SC1=S)c1cccnc1	-9%	.	.	-3	-1.0
N#Cc1ccccc1CSc1nnc(-c2ccncc2)o1	.	.	.	0	-0.2
COc1ccc(-c2csc(NC(=O)CSCc3c(C)noc3C)n2)c(OC)c1	.	.	.	81	5.2
CCN(CC)S(=O)(=O)c1cccc(NC(=O)c2ccccc2Br)c1	8%	-2	.	-10	.
CCN1CCc2c(sc(NC(=O)c3ccc(S(=O)(=O)N4CCOCC4)cc3)c2C(=O)OC)C1	.	-1	-10	-8	-1.4
COc1cccc(-c2nc(-c3ccc(NC(=O)Cc4ccccc4OC)cc3)no2)c1	5%	5	-22	.	.
CCCc1nn2c(=O)cc(COc3ccc(NC(=O)c4ccco4)cc3)nc2s1	.	.	.	5	-2.1
Other compounds.
SMILES	Mtb H37Rv	Arbovirus anti	YopH PTP inh	Mtb bLac sens	RecA splice inh	others
Cn1c(=O)c2c(nc(CN3CCN(C(=O)c4ccco4)CC3)n2Cc2ccc(F)cc2)n(C)c1=O	-4%	-5	-25	-6	-0.1
CC1=CN2C(=N)/C(=C/c3ccc(Sc4ccc(C)cc4)o3)C(=O)N=C2S1	30%	-20	-19	8	-1.4
O=C(c1ccc2ccccc2c1)C1CCCN(C(=O)c2cnccn2)C1 (stereo not drawn)	-4%	.	.	0	2.7
O=C(CCN=C1NS(=O)(=O)c2ccccc21)OCc1cccc(Cl)c1	.	.	.	-2	-4.9
CCOC(=O)C1CCCN(C(=O)Cn2nc(Cc3cccnc3)c3ccccc3c2=O)C1 (stereo not drawn)	-1%	0	-26	-2	0.2	Arbovirus anti repeat=-3
CC1=NNC(=O)C1CCC(=O)N/N=C\c1ccc(Cl)c(Cl)c1 (stereo not drawn)	-2%	3	.	2	0.9
COc1ccc(-c2cc(=O)oc3cc(OCC(=O)N(C)C4CCS(=O)(=O)C4)ccc23)cc1 (stereo not drawn)	.	.	.	1	-2.4
CCOC(=O)c1cnc(SCC(=O)Nc2cc(OC)cc(OC)c2)nc1N	2%	9	3	10	-1.3
O=C(Nc1cccc(Cl)c1)NC1CC2CCC(C1)N2Cc1ccco1 (stereo not drawn)	4%	4	.	-7	1.2
COc1ccc(N(Cc2ccccc2)S(=O)(=O)c2cccc(C(=O)NC3=NCCS3)c2)cc1	3%	-15	-2	-13	5.9
O=C(CNCc1ccccc1Cl)Nc1ccccc1N1CCCCC1	1%	-17	.	6	25
COc1ccccc1C(=O)C1CCCN(C(=O)CCc2ccccn2)C1 (stereo not drawn)	3%	4	.	-7	-0.2
CN(c1ccccc1)c1cc(Br)nc(Br)c1	.	.	.	-5	0.3
COC(=O)[C@@H]1CCCN1C(=O)CCc1nnc(CCC2CCCCC2)o1	-2%	-5	.	-4	1.2
COc1ccc(NC(=S)NC(=O)c2ccccc2Cl)cc1	0%	4	.	0	5.1
CC1CCCC(NC(=O)CC2Nc3ccccc3NC2=O)C1C (stereo not drawn)	.	-1	-29	-2	-2.6
COc1ccc(OCCNC(=O)/C=C/c2ccccc2)cc1	-1%	7	.	1	-4.8
Cc1c(C(=O)NCCSCc2ccccc2)cccc1[N+](=O)[O-]	-6%	-13	.	-7	.
CCOCCCN(C)C1CCN(C(=O)c2oc3ccccc3c2NC(=O)Cc2ccc(F)cc2)CC1	.	.	.	-3	0.5
Cc1ccc(C(=O)NCC(=O)OCCCOC(=O)CNC(=O)c2ccc(C)cc2)cc1	.	.	.	4	1.7
O=C(Nc1nc2ccc(F)cc2s1)C1CCCO1 (stereo not drawn)	-4%	3	-21	-2	1.7
CCC(=O)N1CCc2cc(OC)c(OC)cc2C1COc1ccc(C(=O)OC)cc1 (stereo not drawn)	-2%	17	-12	-6	-0.1

Six successive compounds from above, quoted:
SMILES	Mtb H37Rv	Arbovirus anti	YopH PTP inh	Mtb bLac sens	RecA splice inh	others
COc1ccc(OCCNC(=O)/C=C/c2ccccc2)cc1	-1%	7	.	1	-4.8
Cc1c(C(=O)NCCSCc2ccccc2)cccc1[N+](=O)[O-]	-6%	-13	.	-7	.
CCOCCCN(C)C1CCN(C(=O)c2oc3ccccc3c2NC(=O)Cc2ccc(F)cc2)CC1	.	.	.	-3	0.5
Cc1ccc(C(=O)NCC(=O)OCCCOC(=O)CNC(=O)c2ccc(C)cc2)cc1	.	.	.	4	1.7
O=C(Nc1nc2ccc(F)cc2s1)C1CCCO1 (stereo not drawn)	-4%	3	-21	-2	1.7
CCC(=O)N1CCc2cc(OC)c(OC)cc2C1COc1ccc(C(=O)OC)cc1 (stereo not drawn)	-2%	17	-12	-6	-0.1
